Screening results as filed in PubChem.
CSC inhib: cancer stem cell inhibition; cancer stem cell-like cells viability, luminescence; inhibition, % at 7.5 µM; hit rate 1.1% among 300,000;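 active = mean at 75% or more and at least half the replicates too; tested in HMLE shEcad cells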;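 also: 0% = median of negative and 100% = median of positive control wells; the first replicate is given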
Rce1 inhib: blocks yeast Ras-converting enzyme; Q03530; yeast membranes, quenched prenylated peptide cleavage fluorescence; calls only; hit rate 0.27% among 290,000;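 active = fall in fluorescence gain of 50% or more versus controls, with final raw signal at or below 3038400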;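 also: plate controls were neutral control wells for no effect and wells lacking membranes for full effect; tested at 10 µM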
UUG fidelity: alters start codon recognition fidelity in yeast. S. cerevisiae UUG-firefly luciferase reporter, luminescence/redox ratio. AID 602363. hit rate 0.13% among 350,000. activity score, % at 18.7 µM;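 active = replicate mean at a twofold rise or more, about +100% in these data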;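 also: firefly luciferase made from a UUG start codon reports start codon fidelity; reporter light over untreated wells divided by growth signal over untreated wells; some hits fall short of that in this replicate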
eIF4H inh: inhibitors of RNA binding by human eIF4H; Q15056; eIF4H fluorescence polarization binding assay; inhibition, % at 35 µM; hit rate 0.94% among 290,000;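 active = 50% or more with normal probe brightness, or confirmed in later tests; about a fifth of its hits are not listed in these tables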;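 also: calls also rest on retests at 20 µM and on dose response follow-up; 0% = protein and probe with vehicle and 100% = probe without protein; strong numbers were not always called active; many hits fall short of the cut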
MT1-MMP act inh: inhibitors of human MT1-MMP activation; HT1080 RFP-PRO-GFP cells, GFP/RFP ratio fluorescence, overnight; percent of plate control window, DMSO zero; hit rate 0.061% among 360,000; AID 651647; P50281; GFP/RFP ratio change, % at 20 µM;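 active = GFP/RFP ratio change of at least 30% with cell ATP level not reduced by more than half and red fluorescence within 50% of control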; also: strong numbers were not always called active
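Test system: HT1080 RFP-PRO-GFP cells; Benchmarks: DMSO and RFP-L50D-GFP cell wells; Timing: cells overnight before dosing, compound overnight, 37 °C, 5% CO2; Compound: one 20 µM compound dose with 1% DMSO; Read-out: GFP/RFP fluorescence ratio.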
Env fusion inh: inhibitors of HIV Env-mediated cell fusion | hit rate 1.1% among 360,000 | HeLa-JRFL Env/CEM21 cell fusion, luciferase | inhibition, % at 12.3 µM;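 active = mean replicate inhibition score of at least 50 and every replicate individually at or above 50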;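 also: 0% = plate neutral controls and 100% = maraviroc near 300 nM; one replicate is shown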
PABP FP inh: PABP-poly(A) binding inhibition; PABP-poly(A) RNA binding, fluorescence polarization; inhibition, % at 35 µM; hit rate 1% among 290,000; AID 2014;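 active = 50% or more with normal probe brightness, or confirmed in later tests; about a fifth of its hits are not listed in these tables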;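 also: calls also rest on retests at 20 µM and on dose response follow-up; controls were probe without protein and protein plus probe with vehicle; some compounds called inactive have numbers as strong as hits; many hits fall short of the cut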
Target sequence (P11940 whole entry, looked up): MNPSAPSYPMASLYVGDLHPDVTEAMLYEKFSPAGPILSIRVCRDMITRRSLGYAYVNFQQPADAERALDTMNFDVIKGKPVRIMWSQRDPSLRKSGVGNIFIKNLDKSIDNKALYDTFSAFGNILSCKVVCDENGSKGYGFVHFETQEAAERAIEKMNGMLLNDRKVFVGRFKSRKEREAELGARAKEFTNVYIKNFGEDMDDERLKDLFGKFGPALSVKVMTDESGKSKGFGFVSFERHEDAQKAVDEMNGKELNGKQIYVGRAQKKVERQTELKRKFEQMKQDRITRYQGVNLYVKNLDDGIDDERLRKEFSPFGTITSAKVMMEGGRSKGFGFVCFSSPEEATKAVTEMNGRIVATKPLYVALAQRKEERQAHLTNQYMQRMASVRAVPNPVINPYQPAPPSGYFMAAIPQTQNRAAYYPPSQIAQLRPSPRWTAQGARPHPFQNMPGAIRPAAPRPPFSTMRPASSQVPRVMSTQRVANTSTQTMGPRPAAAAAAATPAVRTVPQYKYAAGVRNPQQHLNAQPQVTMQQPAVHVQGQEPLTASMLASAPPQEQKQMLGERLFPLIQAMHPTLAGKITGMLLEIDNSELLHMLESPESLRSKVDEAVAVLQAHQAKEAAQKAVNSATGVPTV
eIF4H inh retest: recorded beside eIF4H inh, whose call it bears; inhibition, %; compound at 20 µM; confirmation average;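 mean of two retest wells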
PABP FP inh retest: also measured in PABP FP inh; calls as there; inhibition, %; compound at 20 µM; confirmation repeats;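 mean of two retest wells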
MT1-MMP act inh RFP: recorded beside MT1-MMP act inh, whose call it bears; RFP signal change, %; measured here: RFP expression control read;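 0 = vehicle wells; hits needed this value within 50% of zero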
Starred values were filed as active, the others as inactive; i = inactive; · = no result given; + = active, no number. Some of the compounds tested (hit frequency here may not be typical).

SMILES	CSC inhib	Rce1 inhib	UUG fidelity	eIF4H inh	MT1-MMP act inh	MT1-MMP act inh RFP	Env fusion inh	PABP FP inh	others
Cc1cc(Nc2ccc(C)c(Br)c2)n2nc(C)nc2n1	-5	i	-20	3	-1	3	-13	-11
Nc1nc2nc(-c3ccc(F)cc3)cc(C(F)(F)F)n2n1	1	i	-14	4	-3	2	-18	-4
Cc1ccc(NC(=O)CN(C)C(=O)CSc2ccccc2F)cc1	-17	·	-9	·	-1	-4	-299	·
CCCC(C)c1nnc(NC(=O)COc2ccc3c(c2)OCO3)s1 (stereo not given)	85*	·	-17	-7	3	2	-5	-4
COc1ccc(-n2c(SCC(=O)NNC(=O)c3ccccc3C)nnc2-c2ccncc2)cc1	2	i	3	-16	2	0	1	-7
CC(C)CC1C(C#N)=C(N)OC2=C1C(=O)CC(c1ccccc1)C2 (stereo not given)	-12	i	·	-4	-5	-5	1	-17
CCN(C(=O)COC(=O)CSc1ccc(C)c(C)c1)C1CCS(=O)(=O)C1 (stereo not given)	3	i	-12	3	-3	0	-8	4
CCN(CC(=O)Nc1sc2c(c1C#N)CCCC2)CC(=O)NC1CCS(=O)(=O)C1 (stereo not given)	-16	i	·	0	2	3	2	-14
O=C(/C=C\c1ccco1)Nc1nc(-c2ccccc2)cs1	·	i	·	-7	0	2	-8	-1
O=C1c2cccc3c(Nc4ccccc4Cl)c([N+](=O)[O-])cc(c23)C(=O)N1CCO	0	i	-1	2	15	-1	-24	2
Cc1ccc(C(=O)NNC(=O)c2csc(N3CCOCC3)n2)s1	-8	i	-16	·	3	2	-11	·
Cc1cc(C)c(NS(=O)(=O)c2ccc3c(c2)NC(=O)CC(=O)N3)c(C)c1	7	i	-3	-8	-5	-3	-13	6
O=C(Cc1cccc2ccccc12)NNC(=O)c1cccs1	-7	i	-15	-2	-2	-3	10	8
COc1cc2c(-c3ccc4cc[nH]c4c3)c(-c3ccc(C#N)cc3)oc(=O)c2cc1OC	39	·	-6	·	1	-8	-76	·
O=[N+]([O-])/C=C1/CCCCCN1	-5	i	·	-5	-1	2	-8	11

The list goes on, overlapping the part above by two compounds.
SMILES	CSC inhib	Rce1 inhib	UUG fidelity	eIF4H inh	MT1-MMP act inh	MT1-MMP act inh RFP	Env fusion inh	PABP FP inh	others
COc1cc2c(-c3ccc4cc[nH]c4c3)c(-c3ccc(C#N)cc3)oc(=O)c2cc1OC	39	·	-6	·	1	-8	-76	·
O=[N+]([O-])/C=C1/CCCCCN1	-5	i	·	-5	-1	2	-8	11
COC(=O)/C=C(\C)N=Nc1c(O)[nH]c2ccccc12	7	i	-15	8.6*	3	-2	11	58*	eIF4H inh retest=91*;PABP FP inh retest=52*
COC(=O)c1ccc(NC(=O)c2ccc(N(C)S(C)(=O)=O)cc2)cc1	13	i	-22	1	-12	-18	·	2
COc1ccc(CNC(=O)CN(C(=O)c2snc(C(N)=O)c2N)c2ccccc2F)cc1	-8	·	-10	0	-1	-3	18	3
CCOC(=O)COn1c(=O)c(-c2ccc(Cl)cc2)[n+]([O-])c2ccccc21	-6	i	-17	-4	-4	-2	-22	1
COc1ccc(C(=O)/C=C/c2ccc(OC)cc2OC)c(O)c1	15	+	8	-4	5	-8	·	5
CC(=O)Nc1ccc(C(=O)NNC(=O)C2C3CCCCC32)cc1 (stereo not given)	0	i	-4	-5	1	3	-5	-5
COc1ccc(N2CCN(C(=O)C(=O)c3c(C)[nH]c4ccccc34)CC2)cc1	-10	i	6	-9	3	4	-16	3
Cc1ccc(N=CNc2ccc(C)cc2C)c(C)c1	-7	i	-16	0	1	3	-3	-4
Cc1cc(NC(=O)CCN2C(=O)/C(=C/c3ccccc3Cl)SC2=S)no1	-2	i	·	-2	0	-2	0	1
O=C(Nc1nc2ccccc2s1)c1ccccc1	0	i	-45	3	-2	-7	-208	7
CCOc1ccccc1NC(=O)N1CCN(S(C)(=O)=O)CC1	-4	i	·	-10	5	5	19	-10
COc1ccccc1NS(=O)(=O)c1ccc(C)c(C(=O)NCC2CCCO2)c1 (stereo not given)	7	i	-4	-8	-3	4	-1	-7
O=C(O)c1ccc(C2NCC(c3ccccc3Cl)c3c2[nH]c2ccccc32)cc1 (stereo not given)	-3	i	·	-2	8	4	-76	6
C=CCN1C(=O)C(O)(CC(=O)c2ccc(N)cc2)c2ccccc21 (stereo not given)	-1	i	7	-7	2	2	·	-2
O=C(C[n+]1ccccc1)N/N=C/c1ccc(Cl)c(Cl)c1	-15	i	-17	-16	-3	2	-31	0
CC(=O)N1CCC(N(CCN2CCOCC2)C(=O)Nc2ccc(Cl)c(Cl)c2)CC1	7	i	-26	·	0	-2	3	·
COCCN1CCN(C(=O)C2CCC(=O)N(Cc3ccccc3F)C2)CC1 (stereo not given)	2	i	-18	-5	-3	-8	-6	-5
CC(C)C(NC(=O)c1ccc2c(c1)OCO2)C(=O)N/N=C/c1cccs1 (stereo not given)	-9	i	-13	10	1	1	-4	1
O=C(N/N=C/C=C/c1ccc2c(c1)OCO2)C(O)c1ccccc1 (stereo not given)	-10	i	-12	-16	-1	2	8	-3
C/C(=N\NC(=O)Cc1csc(N2CCOCC2)n1)c1ccccc1	1	i	7	4	3	1	-8	-8
COc1ccc(OC)c(-n2nnnc2SCC(=O)Nc2cc(C)ccc2OC)c1	4	i	-22	0	-6	-6	0	3
CC(NC(=O)CCNS(=O)(=O)c1ccc2c(c1)c(=O)n(C)c(=O)n2C)c1ccccc1 (stereo not given)	-10	i	-5	3	3	1	-22	-6
Cc1ccc(-c2csc3nc[nH]c(=O)c23)cc1C	-6	i	-6	-4	2	-2	-6	-2
O=C1COc2ccc(C(=O)COc3ccc(Cl)cc3Br)cc2N1	1	i	-9	·	-1	-5	16	·
Cc1ccc(N(C(=O)CS(=O)CC(=O)Nc2ccc(F)cc2)C(C(=O)NC2CCCCC2)c2ccco2)cc1 (stereo not given)	·	i	·	-3	3	-2	5	-10
Cc1nnnn1-c1cccc(C(=O)O)c1	-8	i	-15	-9	9	5	·	-3
O=C(CNC(=O)c1nc[nH]c1C(=O)N1CCN(c2ccccc2)CC1)OCc1ccccc1	-8	i	-10	-6	4	5	-10	1
CC(C)c1ccccc1NC(=O)C1CN(S(=O)(=O)c2ccccc2)CCN1S(=O)(=O)c1ccccc1 (stereo not given)	14	i	-5	-17	-3	-8	-15	-2
CC(=O)Nc1ccc(SCC(=O)c2cc(C)n(C)c2C)cc1	10	i	·	4	6	7	·	-3
COc1ccc(C2CC(=O)N(CCCN(C)CCc3ccc(OC)c(OC)c3)C2)cc1 (stereo not given)	-21	i	1	4	-6	-1	-1	-3

Of the compounds above, these contain a COOH group:
SMILES	CSC inhib	Rce1 inhib	UUG fidelity	eIF4H inh	MT1-MMP act inh	MT1-MMP act inh RFP	Env fusion inh	PABP FP inh	others
O=C(O)c1ccc(C2NCC(c3ccccc3Cl)c3c2[nH]c2ccccc32)cc1 (stereo not given)	-3	i	·	-2	8	4	-76	6
Cc1nnnn1-c1cccc(C(=O)O)c1	-8	i	-15	-9	9	5	·	-3

Later entries.
SMILES	CSC inhib	Rce1 inhib	UUG fidelity	eIF4H inh	MT1-MMP act inh	MT1-MMP act inh RFP	Env fusion inh	PABP FP inh	others
CC(=O)N1CCOc2ccc(S(=O)(=O)Nc3cccc(C)n3)cc21	9	i	-9	7	4	6	-11	-8
Cc1ccc(/C=N/c2sc3c(c2C#N)CCCCC3)o1	·	i	-16	26	-4	2	·	54	eIF4H inh retest=40;PABP FP inh retest=35
CCOc1ccc(-c2nnc(-c3ccco3)o2)cc1	6	i	-32	0	3	5	·	-5
CCN(CC)CCN1C(=O)C2C3c4ccccc4C(c4ccccc43)C2C1=O (stereo not given)	-5	i	-11	3	-4	3	·	-6
Cc1cccc(NC(=O)Nc2cccc3ccccc23)c1	5	i	-3	-11	0	-2	4	-5
Cc1ccc(OCc2nnc(SCC(=O)NCc3ccco3)n2C)cc1	-11	i	-13	7	8	5	-36	-3
CCc1ccc(OCc2nnc(SCCN3CCOCC3)n2CC)cc1	-12	i	-24	-16	0	-3	-28	43
Cc1ccccc1NC(=S)N1CCC(NC(=O)c2ccco2)CC1	0	i	-18	-1	0	2	1	13
O=c1cc(/N=C/c2coc3c(ccc4ccccc43)c2=O)[nH]c(=S)[nH]1	3	i	·	10	2	0	3	0
Cc1ccc(C)c(N2CCN(C(=O)CCS(=O)(=O)c3ccc4c(c3)CCN4C(=O)C3CC3)CC2)c1	17	i	11	3	-6	-2	6	8
c1ccc2cc(CSCc3nc4ccccc4[nH]3)ccc2c1	6	i	·	-5	6	-6	24	-5
O=C1C(Cl)=C(N2CCOCC2)C(=O)N1c1cccc(C(F)(F)F)c1	6	i	-11	0	-2	-1	5	-8
C=CCNC(=O)c1cccc2c1C(=O)c1ccc(N3CCOCC3)cc1S2(=O)=O	0	·	1	·	-11	1	·	·
CC(C)c1nc(NCc2ccccc2)c(C#N)c2c1CCCC2	7	i	-13	-10	-7	-6	·	1
CCN(CC(=O)Nc1cc(Cl)ccc1C)C(=O)c1oc2ccc(OC)cc2c1C	·	i	-2	·	-2	-2	2	·

Arranged by SMILES length (lowest first): some entries from above
SMILES	CSC inhib	Rce1 inhib	UUG fidelity	eIF4H inh	MT1-MMP act inh	MT1-MMP act inh RFP	Env fusion inh	PABP FP inh	others
CCOc1ccc(-c2nnc(-c3ccco3)o2)cc1	6	i	-32	0	3	5	·	-5
Cc1ccc(/C=N/c2sc3c(c2C#N)CCCCC3)o1	·	i	-16	26	-4	2	·	54	eIF4H inh retest=40;PABP FP inh retest=35
CCc1ccc(OCc2nnc(SCCN3CCOCC3)n2CC)cc1	-12	i	-24	-16	0	-3	-28	43
Cc1ccc(OCc2nnc(SCC(=O)NCc3ccco3)n2C)cc1	-11	i	-13	7	8	5	-36	-3
CCN(CC(=O)Nc1cc(Cl)ccc1C)C(=O)c1oc2ccc(OC)cc2c1C	·	i	-2	·	-2	-2	2	·
Cc1ccc(C)c(N2CCN(C(=O)CCS(=O)(=O)c3ccc4c(c3)CCN4C(=O)C3CC3)CC2)c1	17	i	11	3	-6	-2	6	8

Additional entries follow:
SMILES	CSC inhib	Rce1 inhib	UUG fidelity	eIF4H inh	MT1-MMP act inh	MT1-MMP act inh RFP	Env fusion inh	PABP FP inh	others
CCOc1ccc2nc(SC3CC(=O)N(c4cccc(OC)c4)C3=O)sc2c1 (stereo not given)	0	i	·	-3	6	12	-27	0
Cc1cc(OCC(=O)N2CCCC2)cc(C)c1Cl	-15	i	-6	-1	-5	-6	-23	2
COc1cc(/C(C#N)=C/c2ccccc2)c([N+](=O)[O-])cc1OC	13	i	-30	8	-10	-16	·	-7
COc1ccc(OCCOC(=O)c2cccc(-n3cnnn3)c2)cc1	-8	i	4	-11	-9	1	-28	0
CC(=O)N1CCN(S(=O)(=O)c2ccc(S(=O)(=O)NC3CC3)cc2)CC1	3	i	-8	6	4	2	-2	-1
CC1=NN(C(N)=S)C(=O)C1N=Nc1ccc(C)c(Br)c1 (stereo not given)	21	i	-30	9	7	1	-91	-6
CC(C)(C)C(=O)/C=C(\N)c1ccncc1	-8	i	-15	-10	0	-1	·	3
